Bioassay records from PubChem BioAssay.
MT1-MMP act inh: blocks activation of human MT1-MMP; HT1080 RFP-PRO-GFP cells, GFP/RFP ratio fluorescence, overnight; percent of plate control window, DMSO zero; GFP/RFP ratio change, % at 20 µM; 0.061% of 360,000 active; P50281;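 active = GFP/RFP ratio change of at least 30% with cell ATP level not reduced by more than half and red fluorescence within 50% of control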; note: strong numbers were not always called active
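system = RFP-PRO-GFP reporter HT1080 cells | dosing = 20 µM single dose, 1% DMSO | timing = overnight cell settling, then overnight compound exposure, 37 °C, 5% CO2 | read-out basis = GFP/RFP fluorescence ratio | controls = DMSO and RFP-L50D-GFP cell wells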
HIV Env fusion: inhibitors of HIV Env-mediated cell fusion. AID 651610. inhibition, % at 12.3 µM. HeLa-JRFL Env/CEM21 cell fusion, luciferase. 1.1% of 360,000 active;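 active = mean replicate inhibition score of at least 50 and every replicate individually at or above 50; inconclusive = only one of the two criteria met; inactive = mean below 50 and not all replicates reaching 50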;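 note: 0% = plate neutral controls and 100% = maraviroc near 300 nM; one replicate is shown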
CSC inhib: blocks cancer stem cells; cancer stem cell-like cells viability, luminescence; inhibition, % at 7.5 µM; 1.1% of 300,000 active; AID 2717;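 active = mean at 75% or more and at least half the replicates too; inconclusive = mean and replicates disagree; tested in HMLE shEcad cells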;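 note: 0% = median of negative and 100% = median of positive control wells; the first replicate is given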
Rce1 inh: yeast Ras-converting enzyme inhibition; calls only; Q03530; 0.27% of 290,000 active; yeast membranes, quenched prenylated peptide cleavage fluorescence; AID 2563;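 active = fall in fluorescence gain of 50% or more versus controls, with final raw signal at or below 3038400; inconclusive = same 50% fall but final raw signal above 3038400; inactive = fall in fluorescence gain under 50%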;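 note: plate controls were neutral control wells for no effect and wells lacking membranes for full effect; tested at 10 µM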
Target sequence (Q03530 whole entry, looked up): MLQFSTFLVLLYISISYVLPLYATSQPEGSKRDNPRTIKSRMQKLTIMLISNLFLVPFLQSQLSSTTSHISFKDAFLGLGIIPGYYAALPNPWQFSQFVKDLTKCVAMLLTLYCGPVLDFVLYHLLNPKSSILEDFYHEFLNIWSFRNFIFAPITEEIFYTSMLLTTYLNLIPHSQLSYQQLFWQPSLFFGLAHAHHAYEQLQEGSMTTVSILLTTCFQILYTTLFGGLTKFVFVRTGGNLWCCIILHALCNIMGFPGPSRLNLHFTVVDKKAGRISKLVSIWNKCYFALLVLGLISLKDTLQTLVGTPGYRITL
PABP FP inh: PABP-poly(A) binding inhibition. PABP-poly(A) RNA binding, fluorescence polarization. 1% of 290,000 active. inhibition, % at 35 µM. AID 2014;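 active = 50% or more with normal probe brightness, or confirmed in later tests; inconclusive = above 50% with abnormal brightness, or retests that disagree; inactive = below 50% or failed in later tests; about a fifth of its hits are not listed in these tables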;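 note: calls also rest on retests at 20 µM and on dose response follow-up; controls were probe without protein and protein plus probe with vehicle; some compounds called inactive have numbers as strong as hits; many hits fall short of the cut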
eIF4H inh: inhibitors of RNA binding by human eIF4H. inhibition, % at 35 µM. Q15056. eIF4H fluorescence polarization binding assay. 0.94% of 290,000 active;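 active = 50% or more with normal probe brightness, or confirmed in later tests; inconclusive = above 50% with abnormal brightness, or retests that disagree; inactive = below 50% or failed in later tests; about a fifth of its hits are not listed in these tables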;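 note: calls also rest on retests at 20 µM and on dose response follow-up; 0% = protein and probe with vehicle and 100% = probe without protein; strong numbers were not always called active; many hits fall short of the cut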
Yeast UUG start: yeast start codon fidelity modulation | S. cerevisiae UUG-firefly luciferase reporter, luminescence/redox ratio | activity score, % at 18.7 µM | 0.13% of 350,000 active | AID 602363;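 active = replicate mean at a twofold rise or more, about +100% in these data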;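 note: firefly luciferase made from a UUG start codon reports start codon fidelity; reporter light over untreated wells divided by growth signal over untreated wells; some hits fall short of that in this replicate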
MT1-MMP act inh RFP: recorded beside MT1-MMP act inh, whose call it bears; RFP signal change, %; measured here: RFP expression control read;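 0 = vehicle wells; hits needed this value within 50% of zero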
The depositor's hits bear a star; i = inactive; ? = inconclusive; / = no result given; [ ] = another dose, or the depositor's remark.

SMILES	MT1-MMP act inh	MT1-MMP act inh RFP	HIV Env fusion	CSC inhib	Rce1 inh	PABP FP inh	eIF4H inh	Yeast UUG start
CN(C(=O)CCc1nc(-c2ccccc2F)no1)c1ccccc1	0	-1	2	-8	i	11	-9	/
CC(=O)N1CCc2cc(S(=O)(=O)CCC(=O)Nc3cccc(F)c3)ccc21	-3	1	?	-9	/	9	-3	-6
COc1cccc(N2C(=O)C3CCCN3C2=S)c1 (configuration not stated)	3	4	2	/	i	2	-7	-9
COc1ccccc1NC(=O)CCC(=O)N(Cc1ccc(OC)c(OC)c1)c1nccs1	3	2	9	-19	i	-2	-12	/
O=C(C[C@@H]1CC[C@H](NC(=O)c2ccc3c(c2)OCO3)[C@@H](CO)O1)NCc1ccc(F)cc1	-1	1	-13[16.7 µM]	/	/	/	/	-5
COc1cc(C2=NOC(C(=O)NCc3cccnc3)C2)cc(OC)c1OC (configuration not stated)	1	0	-9	-13	i	1	1	-30
CCOC(=O)C1CCCN(C(=O)c2ccc(OC)cc2)CC1 (configuration not stated)	-1	1	-40	/	/	/	/	-17
Cc1cccc(C)c1NC(=O)CSc1ccc([N+](=O)[O-])cn1	0	3	3	15	i	5	15	/
O=C(CCSc1nnnn1-c1ccccc1)N1CCOCC1	-1	-2	-21	9	i	0	4	-2
O=[n+]1cc(-c2cc3ccccc3o2)n([O-])c2c1CCCC2	5	-2	-73	-16	i	5	-6	-25
NC12CC3CC(C1)CC(CC(=O)O)(C3)C2	-1	3	-2	2	i	9	0	-22
O=C(CC1Oc2ccccc2NC1=O)NCCCN1CCN(C2CCCCC2)CC1 (configuration not stated)	-11	4	31	11	i	/	/	-11
Cc1ccc(NC(=O)/C(=C\c2ccco2)NC(=O)c2ccco2)cc1	-4	2	-4	0	i	17	-11	/
C=CCNC(=O)/C(C#N)=C/c1cc(Br)ccc1OC	-6	-11	-3	0	i	5	2	4
CCN(CC)c1ccc(/C=N/N2CCN(c3ccccc3OC)CC2)cc1	3	0	13	25	i	-6	3	-32
Cc1cc(C)n(-c2nc3ccccc3c(=O)n2OCC#N)n1	1	-2	13	41	i	-2	7	-5
COc1ccc(N(CC(=O)NC2CCS(=O)(=O)C2)S(=O)(=O)c2cc(C)ccc2C)cc1 (configuration not stated)	-3	3	7	-8	/	/	/	-8
CC1(C(=O)NS(=O)(=O)c2cccc(Cl)c2)CCN1C(=O)Cc1cccs1 (configuration not stated)	0	-1	-12	/	/	/	/	-10
O=C(CCC(=O)NC1CCCCC1)N/N=C/c1ccncc1	0	1	-1	15	i	-9	2	/
CCOC(=O)C(CC)Sc1nc2c(c(=O)[nH]c(=O)n2C)n1CCc1ccccc1 (configuration not stated)	0	1	/	1	i	-10	1	/
O=C(NNC(=O)c1ccc(Cl)nc1)c1ccncc1	-4	0	-25	/	/	/	/	-22
C=CCOc1ccc(C[C@H](N)C(=O)NC[C@H]2O[C@@H](n3cc(C)c(=O)[nH]c3=O)C[C@@H]2O)cc1	-3	-3	12	/	/	/	/	-18
COc1ccc(-c2nc3ccccc3c(=O)n2O)cc1	-2	4	20	0	i	0	-8	8
CCOc1ccc(S(=O)(=O)N2CCC(C(=O)NCC3CCCO3)CC2)cc1 (configuration not stated)	0	-1	-27	0	i	-5	-11	-4
CC1CCN(S(=O)(=O)c2ccc([N+](=O)[O-])cc2)CC1	-3	-2	14	-18	i	6	-2	-3
CCNc1nc(ON=C(C)C)nc(N(C)C)n1	-1	1	-13	13	i	4	-9	-22
COc1ccc2c(c1)C=C([C@@H]1C[C@H]3CN(c4ccccc4)C(=O)[C@]34CCCN14)CO2	-3	-8	3	-2	i	6	-8	0
CC(=O)O[C@H]1CC[C@]2(C)[C@H]3CC=C4[C@@H]5[C@@H](C)[C@H](C)CC[C@]5(C(=O)O)CC[C@@]4(C)[C@]3(C)CC[C@H]2C1(C)C	/	/	/	-16	i	-4	-2	/
O=C(NNS(=O)(=O)c1ccccc1)c1ccc([N+](=O)[O-])cc1	-1	1	-22	-4	i	0	-6	-10
CCCCn1c(N)c(N(CCOC)C(=O)CSc2nc3ccc(C)cc3[nH]2)c(=O)[nH]c1=O	-3	0	-39	-15	i	4	-6	-9
Cc1cc(C)c(NC(=O)C2CC3CCC2C3)c(C)c1 (configuration not stated)	-1	0	/	9	i	-8	-8	-10
COc1ccc(C(=O)NCCc2nnc(SCC(=O)Nc3ccccc3)n2C)cc1	2	1	/	-3	i	6	-4	-1
Cc1nn(Cc2ccc(C(=O)N3CCN(C(=O)c4ccco4)CC3)o2)c(C)c1[N+](=O)[O-]	4	-14	-9	-12	/	-5	1	-17
CC(CC(=O)O)CC1=NS(=O)(=O)c2ccccc2N1 (configuration not stated)	-1	3	-10	0	/	34	5	/
O=C(ON=C1CCN(S(=O)(=O)c2ccccc2)CC1)c1ccccc1	1	4	7	-12	i	-3	-10	-2
COc1cccc(OCCNCc2ccccc2)c1	-1	0	-19	-1	i	3	10	12
CCOC(=O)CSc1nc(-c2ccccc2)nc2c1oc1ccccc12	-2	4	/	3	i	-2	-5	/
COc1cc2c(cc1NC(=O)COc1ccccc1OC)oc1ccccc12	4	0	21	-4	i	0	-17	-13
COc1ccc(C=C2SC(=O)NC2=O)cc1OC	8	-6	-24	/	/	/	/	6
O=C(N/N=C/C=C/c1ccccc1)NC1CCCCC1	5	5	1	11	i	-12	-1	/
COc1ccccc1NC(=O)CCCC(=O)OCC(F)(F)C(F)F	4	1	-57	-6	i	3	-10	-3
CCn1c(SCC(=O)NC2CC2)nnc1-c1cccs1	-2	0	-2	/	/	/	/	-15
Cn1c(N)c(C(=O)COC(=O)Cc2ccccc2F)c(=O)n(C)c1=O	3	0	-20	-13	/	/	/	-12
O=C(NCc1ccccc1Cl)c1ccc(NC2=NC3CS(=O)(=O)CC3S2)cc1 (configuration not stated)	5	-2	4	0	i	-8	0	-7
Cc1ccc(C(=O)Nc2ccc3ccccc3n2)cc1	5	-5	-125	12	i	1	-7	-42
CC(NS(=O)(=O)c1ccccc1)C(=O)NCCc1ccccn1 (configuration not stated)	3	8	-2	1	i	-3	1	/
COc1cc(C(=O)NCC2CCCO2)ccc1OCc1ccc(Cl)cc1Cl (configuration not stated)	4	-8	67*	13	i	/	/	/
Cc1cc(/C([O-])=C(/C(=S)Nc2ccc(F)cc2)[n+]2ccccc2)c(C)n1Cc1ccccc1Cl	1	5	12	/	i	2	40	/
CCCN(CC(=O)Nc1cc(Cl)ccc1Cl)C(=O)/C=C/c1cc(OC)ccc1OC	3	-2	15	23	/	/	/	-23
CCC(C)NCCCCOc1ccc(Cl)cc1C (configuration not stated)	2	3	0	60	i	9	7	3
The listing continues.
SMILES	MT1-MMP act inh	MT1-MMP act inh RFP	HIV Env fusion	CSC inhib	Rce1 inh	PABP FP inh	eIF4H inh	Yeast UUG start
NC(=S)N/N=C/c1cn(-c2ccccc2)nc1-c1cccnc1	4	-3	-10	35	i	-8	-4	-29
COc1ccccc1OS(=O)(=O)c1ccc(NC(C)=O)cc1	4	-7	-1	-1	i	3	-4	1
COc1ccccc1C(=O)Nc1ccc(N2CCCCC2)cc1	1	3	/	-3	i	-7	-2	-23
Fc1ccc2nc(Nc3ccccc3)sc2c1	3	-1	-87	15	i	-16	-11	-12
CN(CC1CCOCC1)C(=O)CC1C(=O)NCCN1Cc1cccc(C(F)(F)F)c1 (configuration not stated)	-2	5	-10	/	i	11	0	-22
Cc1ccc(C(=O)NC2=NCCS2)cc1Cl	1	3	/	-2	i	-3	-18	-10
COc1cccc(/C=N/NC(=O)C(=O)N/N=C/c2cccc(OC)c2OC)c1OC	4	3	/	-11	i	-20	7	-9
O=C(CC1(O)C(=O)N(CCc2ccccc2)c2ccccc21)c1ccco1 (configuration not stated)	4	7	/	-2	i	6	0	1
C/C(=N/NC(=O)c1ccoc1C)c1cccc(NC(=O)C2CC2)c1	7	2	-18	-7	i	-12	-4	/
Cc1ccc(C)n1-c1sc2c(c1C#N)CCC(C)C2 (configuration not stated)	-3	-2	/	/	i	-1	4	-3

Single records (already shown). Order of values: MT1-MMP act inh	MT1-MMP act inh RFP	HIV Env fusion	CSC inhib	Rce1 inh	PABP FP inh	eIF4H inh	Yeast UUG start
CN(CC1CCOCC1)C(=O)CC1C(=O)NCCN1Cc1cccc(C(F)(F)F)c1 (configuration not stated) is listed with -2	5	-10	/	i	11	0	-22
COc1ccccc1OS(=O)(=O)c1ccc(NC(C)=O)cc1 is listed with 4	-7	-1	-1	i	3	-4	1
Fc1ccc2nc(Nc3ccccc3)sc2c1 is listed with 3	-1	-87	15	i	-16	-11	-12
COc1cccc(/C=N/NC(=O)C(=O)N/N=C/c2cccc(OC)c2OC)c1OC is listed with 4	3	/	-11	i	-20	7	-9
C/C(=N/NC(=O)c1ccoc1C)c1cccc(NC(=O)C2CC2)c1 is listed with 7	2	-18	-7	i	-12	-4	/

Next section
SMILES	MT1-MMP act inh	MT1-MMP act inh RFP	HIV Env fusion	CSC inhib	Rce1 inh	PABP FP inh	eIF4H inh	Yeast UUG start
CCS(=O)(=O)N1Cc2ccccc2CC1C(=O)Nc1nnc(SCc2ccc(F)cc2)s1 (configuration not stated)	6	2	/	16	i	10	1	/
CCOC(=O)c1c(NC(=O)CCS(=O)(=O)c2ccccc2)sc2c1CC(C)(C)NC2(C)C	-2	-2	-5	-3	i	-3	13	3
COC(=O)c1c(-n2cnnn2)sc(C)c1C	3	0	-31	-18	i	4	0	-16
CCSc1nsc(SCC)c1C(N)=O	1	6	-80	-7	i	2	-5	-4
O=C(O)Cn1c(-c2ccccc2)cc2ccccc21	0	3	5	-16	i	8	7	-1
Cc1cccc2cc(CN(CC3CCCO3)C(=O)c3cnccn3)c(=O)[nH]c12 (configuration not stated)	1	3	/	/	i	-5	2	-16
COc1ccc(/C(N)=N/OC(=O)c2ccco2)cc1	2	3	-71	14	i	-5	0	-58
C=CCOc1ccccc1CN1CCC(Oc2ccc(C(=O)N3CCCCC3)cc2)CC1	-5	-2	11	6	i	-2	3	-5
CCOC(=O)C1=C(C)N(C)C(=S)NC1c1ccccc1Cl (configuration not stated)	-4	-3	/	8	i	5	-9	-12
O=C(NCc1ccco1)C1CC(=O)N(c2cccc(Cl)c2)C1 (configuration not stated)	0	-1	-10	-6	i	0	8	-10
CCCCN(CC)CCCNC(=O)c1ccc(CS(=O)(=O)c2ccccc2C)o1	0	5	0	-10	i	-13	-11	-11
O=C(c1cccc(NC2=NC3CS(=O)(=O)CC3S2)c1)N1CCN(c2ncccn2)CC1 (configuration not stated)	-5	2	19	-19	i	0	-2	-22
COc1cc(O)c(C(C)=O)cc1OC	5	4	/	0	i	12	7	-20
CCOc1ccc(NC(=O)CSc2nnc(COc3c(C)cccc3C)o2)cc1	3	3	-36	-29	i	-16	-7	-11
CCN(CC)S(=O)(=O)c1cccc(-c2nnc(SCCOc3ccccc3C)o2)c1	1	-11	6	4	i	-3	-5	-16
CCOc1ccc(/C=N/NC(=O)C(=O)N2CCCCCC2)c2ccccc12	1	-3	1	/	i	-1	-8	9
Cc1ccc(CNC(=O)CCNS(=O)(=O)c2cccc3nsnc23)cc1	-1	3	6	-4	i	8	9	-14
CCCc1cc(=O)oc2cc(C)c3c(C)coc3c12	11	-4	/	1	i	-7	4	-5
CC(C)NCc1nnc(-c2ccccc2Cl)o1	2	5	18	/	i	-10	2	/
CCN1CCN(C(=S)Nc2cccc(Cl)c2)CC1	-1	-2	7	-10	i	9	-3	-7
CCOC(=O)c1ccc(-n2c(O)c(/C=N/NC(=O)C3COc4ccccc4O3)c3ccccc3c2=O)cc1 (configuration not stated)	-9	-9	9	35	i	5	15	-3
